T cruzi inh – blocks replication of Trypanosoma cruzi; inhibition, % (test concentration not listed); 300,000 tested, 1.4% active; T. cruzi beta-gal in NIH3T3, luminescence, 90 h;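 active = mean inhibition across valid replicates above about 55%, limit read from the data; inconclusive = mean below that limit but half or more replicates reach it; inactive = mean below it, under half of replicates reach it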;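 note: signal also drops with host cell toxicity which is not excluded here; 0% = plate median of DMSO wells and 100% = zero luminescence signal; higher percent means less beta-gal luminescence so fewer parasites; stock transfer was 50 nL into about 50 µL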
Beta2AR agonist – activates human beta-2 adrenergic receptor causing internalization | response, % (no concentration beside the values) | Am2.2-beta2AR cells, FAP receptor internalization, flow cytometry; reference of the scale not given here | 340,000 tested, 0.43% active;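 active = response above a set limit, near 3 SD of response in nonfluorescent compounds, cut at about 42% in these data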;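 note: stock transfer was 100 nL into about 11 µL; a reference agonist was the positive control; negative values mostly stem from fluorescent compounds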
Target sequence (P07550 whole entry, looked up): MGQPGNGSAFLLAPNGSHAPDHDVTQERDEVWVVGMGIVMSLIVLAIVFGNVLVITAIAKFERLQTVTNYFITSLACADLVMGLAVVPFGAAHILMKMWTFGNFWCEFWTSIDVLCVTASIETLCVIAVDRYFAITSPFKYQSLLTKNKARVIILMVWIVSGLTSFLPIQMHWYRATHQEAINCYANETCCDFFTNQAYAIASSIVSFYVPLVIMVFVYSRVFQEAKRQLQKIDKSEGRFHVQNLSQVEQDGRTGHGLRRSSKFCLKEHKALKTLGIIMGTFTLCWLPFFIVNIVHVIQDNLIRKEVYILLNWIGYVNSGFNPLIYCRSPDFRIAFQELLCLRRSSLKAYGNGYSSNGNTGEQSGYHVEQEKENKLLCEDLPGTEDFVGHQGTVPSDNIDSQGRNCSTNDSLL
UCH37 inh – blocks the human deubiquitinase UCH37 | AID 588478 | 330,000 tested, 0.33% active | purified proteasome/UCH37, Ub-AMC cleavage fluorescence | inhibition, % (concentration not given with the values);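 active = mean of two replicates above 20%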;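 note: 0% = compound-free wells with enzyme and 100% = wells lacking proteasome; stock transfer was 100 nL into about 20 µL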
Target sequence (Q9Y5K5 whole entry, looked up): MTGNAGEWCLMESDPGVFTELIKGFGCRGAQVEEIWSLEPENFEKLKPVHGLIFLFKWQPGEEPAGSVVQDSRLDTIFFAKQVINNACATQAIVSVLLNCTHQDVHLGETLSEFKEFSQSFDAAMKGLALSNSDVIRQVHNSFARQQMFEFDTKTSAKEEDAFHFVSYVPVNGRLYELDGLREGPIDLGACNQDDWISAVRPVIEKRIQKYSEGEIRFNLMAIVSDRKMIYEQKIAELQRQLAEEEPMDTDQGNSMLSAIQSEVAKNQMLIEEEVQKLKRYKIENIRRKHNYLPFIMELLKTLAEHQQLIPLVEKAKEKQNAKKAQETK
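Material: Human UCH37 enzyme supplied as purified proteasome complex | Schedule: 30 min preincubation with enzyme, 25 min cleavage at room temperature | Detection: AMC fluorescence 355/460 nm | Measure: % inhibition of Ub-AMC cleavage fluorescence | Controls: Wells without proteasome as full block, compound-free enzyme plus substrate as uninhibited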
LANA-H2A inh – blocks KSHV LANA binding to histone H2A/H2B. 320,000 tested, 0.6% active. inhibition, % (concentration not given with the values). cell-free LANA-H2A/H2B peptide, fluorescence polarization; in the data active = inhibition mostly above about 10%, no sharp cut-off; inactive = mostly below about 6.7%;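 note: stock transfer was 7.5 nL into about 10 µL; 0% = median of vehicle wells and 100% = median of positive control wells; one replicate is shown; the record names a cut of 25% in any replicate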
Bfl-1 A1 inh – inhibitors of the anti-apoptotic protein A1, read as caspase activation. caspase activation, % (concentration not given with the values). MEF A1-2A-BIM cells, Caspase-Glo 3/7 luminescence, 3 h; percent of clofoctol response, vehicle zero. AID 2462. 330,000 tested, 0.066% active;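 active = over half of replicate activation scores above 10%, or exactly half above 10 with the replicate mean above 10; inconclusive = replicate mean below 10 yet half the replicates above 10; inactive = over half of replicates below 10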;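 note: wells of about 30 µL received 50 nL stock; many hits fall short of the cut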
Calb FLC – C. albicans growth modulation with fluconazole. C. albicans CaCi-2 (fluconazole-resistant clinical isolate) + fluconazole, Alamar Blue growth, 48 h. growth inhibition, % (concentration not given with the values). 300,000 tested, 0.57% active. AID 1979;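 active = most replicates above 75%; inconclusive = exactly half above 75%; inactive = most below 75%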;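 note: all wells also contain fluconazole at 8 µg/ml as a sub-toxic cotreatment; 0% = median of DMSO wells and 100% = median of geldanamycin control wells; wells of about 8 µL received 7.5 nL stock; the first replicate is given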
Beta cell apopt – beta cell apoptosis inhibition. INS-1E cytokine-induced death, ATP luminescence, 48 h; percent of positive-control rescue, neutral wells zero. protection from apoptosis, % (concentration not given with the values). 300,000 tested, 0.8% active. AID 435005;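 active = all replicates at 75% or more, or half of them and the mean; inconclusive = half reach 75% but not the mean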;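 note: 0% = cytokine-treated negative control wells and 100% = positive control rescue; higher means more ATP so stronger rescue from cytokine killing; wells of about 40 µL received 100 nL stock; the first replicate is given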
RanGTP-Imp inh – disruptors of Ran-importin-beta complex formation – biochemical, FRET, CFP-Ran, YFP-importin-beta, homogeneous, primary screen. inhibition, % (test concentration not listed). AID 2216. 300,000 tested, 1.1% active. cell-free CFP-Ran/YFP-importin-beta FRET ratio;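 active = most replicates above 15%; inconclusive = exactly half above 15%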;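 note: 0% = DMSO wells and 100% = Ran loaded with GDP instead of GTP; wells of about 40 µL received 100 nL stock; the first replicate is given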
An asterisk follows results filed as active; i = inactive; ? = inconclusive; . = not tested or not shown.

Molecule	T cruzi inh	Beta2AR agonist	UCH37 inh	LANA-H2A inh	Bfl-1 A1 inh	Calb FLC	Beta cell apopt	RanGTP-Imp inh
CN(c1ccccc1)S(=O)(=O)c1ccc(Cl)c(C(=O)OCC(=O)NC2CCS(=O)(=O)C2)c1 (stereo not given)	8	2	0.3	1.2	0.5	-18	-9	2.0
N#CC1=C2SCN(c3ccc(F)cc3)CN2C(=O)CC1c1cccc(F)c1 (stereo not given)	7	4	1.6	1.5	-0.8	-8	2	7.3
Cc1cc(C(=O)N2CCN(Cc3ccccc3)CC2)on1	-6	-5	6.6	-7.0	1.3	3	3	?
O=C(NCc1ccco1)c1ccc(Cl)s1	-5	1	-1.1	-6.3	0.8	-4	-3	-0.8
O=c1[nH]c(/C=C/c2ccccc2Cl)nc2ccccc12	-4	10	-15	-11	-7.0	-11	.	0.4
CCCCCn1c(=O)[nH]c2cc(C(=O)N3CCN(Cc4ccc5c(c4)OCO5)CC3)ccc2c1=O	4	14	3.6	-3.7	0.3	-5	64	-0.6
CCCN1C(=O)c2ccccc2NC1c1ccc(OC)cc1O (stereo not given)	-13	0	-105	-0.3	0.6	2	3	1.8
Cn1c(=O)n(C)c2cc(NC(=O)CCc3ccccc3)c(Br)cc21	2	6	2.9	2.2	0.4	-1	-4	-3.4
COc1ccc(NC(=O)CN2CCC3(O)CCCCC3C2c2ccccc2OC)cc1 (stereo not given)	14	.	2.5	.	.	-2	.	2.1
O=C(NCc1ccc2c(c1)OCO2)c1sccc1Br	-13	-3	-1.0	-2.0	-0.7	-21	-5	2.8
COCC(=O)Nc1nnc(SCC(=O)N2CCCCC2)s1	3	-2	6.6	-2.3	0.4	1	2	-0.3
Cc1cccc(-c2nc(Nc3cccc(O)c3)c3ccccc3n2)c1	11	6	-91	-4.0	-0.3	14	-5	1.1
O=c1c(-c2ccnn2-c2cccc(Cl)c2)cnc2n1CCS2	-4	-1	1.9	-3.6	-0.4	7	1	-0.7
OC1(C#CCCN2CCCCC2)c2ccccc2-c2ccccc21	-6	-3	1.1	8.2	0.3	0	-7	2.5
O=C(NC(=O)c1ccccc1F)Nc1nc(-c2cccs2)cc(C(F)(F)F)n1	-5	-19	-14	0.0	-0.5	1	-4	4.6
Nn1c(SCc2ccccc2F)nnc1-c1ccccn1	-20	-3	1.2	-2.6	0.6	-22	-3	-0.6
Fc1ccccc1CSc1nnc(-c2cnccn2)n1Cc1ccco1	-5	-2	3.7	-0.7	1.0	30	-6	0.4
CCNC(=S)N/N=C/c1ccc(OCc2ccc(C(=O)OC)cc2)cc1	15	-4	.	2.1	-1.7	18	0	1.6
Cc1nc(SC2C=CS(=O)(=O)C2)n[nH]1 (stereo not given)	-7	12	5.0	-1.3	-0.5	35	-3	3.3
CC(C)(C)c1cnnn1-c1ccc(NC(=O)c2ccc(Br)o2)cc1	-2	0	-0.8	1.6	-1.0	16	-1	0.3
Cc1ccc(CNc2ccc(N3CCN(C)CC3=O)cc2)cc1	.	-2	0.5	4.6	0.9	.	-2	.
CCOc1ccc2cc(C#N)c(SCC(=O)NC(C)CC)nc2c1 (stereo not given)	-15	.	.	34*	-0.1	-4	-2	3.7
COc1ccc(/C=C(\NC(=O)c2ccc(OC)c(OC)c2)C(=O)NCCc2c[nH]c3ccccc23)cc1	8	6	1.0	-0.7	-0.3	8	4	-2.5
CC(C)c1ccc(Nc2c([N+](=O)[O-])c(=O)n(C)c3ccccc23)cc1	31	-13	1.0	-1.9	-0.7	0	6	2.5
c1cc2c(cc1C1=NNC(=NC3CC3)SC1)OCCO2	0	-7	7.7	4.2	-7.7	21	35	-0.2
CCC(C)[C@H](NC(=O)N1CCC(C)CC1)C(=O)OC (stereo not given in full)	-8	-7	-0.1	5.8	0.5	-6	-8	2.9
CC(CCc1ccccc1)NC(=O)CSc1cccc[n+]1[O-] (stereo not given)	11	1	0.3	-5.3	0.4	17	-3	-2.1
O=C(OCc1cn(-c2ccc(Cl)cc2)nn1)c1ccccc1	-12	-2	1.0	0.9	-1.0	2	-5	3.4
CCOC(=O)c1cccc(NC(=O)Cn2c(CC(=O)NC)nc3ccccc32)c1	-3	2	1.4	-3.1	1.8	?	2	-0.4
Cn1cc(CN2CCCCC2CO)c(-c2ccc(Oc3ccccc3)cc2)n1 (stereo not given)	31	-3	1.1	1.8	0.4	-13	3	.
Clc1ccc(-c2cc(CSc3ccccc3)on2)cc1	-7	-10	0.4	-1.2	-0.7	3	-12	4.2
O=C(CNC(=O)Cc1ccccc1)NCC(=O)N1CCCCC1	-17	-11	1.2	-0.3	-0.2	-1	4	-0.2
NC(=O)C1CCN(c2ccc(S(=O)(=O)N3CCC(Cc4ccccc4)CC3)cn2)CC1	32	-8	-1.1	4.5	-0.3	-5	7	?
CC1Cc2ccccc2N1C(=O)CSc1nnc(CSc2ncccn2)n1C (stereo not given)	32	2	1.0	1.0	0.1	-20	6	-0.7
CCOC(=O)c1csc(NC(=O)CSc2nnc(C3CC3)n2C)n1	-2	6	1.3	-0.5	0.4	-17	-4	3.2
Cc1ccc(CSc2nc(-c3ccccc3)c(C#N)c(=O)[nH]2)cc1	12	-5	-3.0	2.6	0.3	34	-7	1.3
Cc1nn(C(C)C(=O)NNC(=S)Nc2ccc(Cl)cc2)c(C)c1[N+](=O)[O-] (stereo not given)	9	-5	1.9	0.0	0.3	-8	-9	-2.7
CC[C@H](CO)Oc1cc(NCc2ccc(Cl)c(Cl)c2)c2ncn(C(C)C)c2c1	.	10	1.2	-1.6	-0.2	.	-9	.
C=CCn1c(SCc2ccc(F)cc2)nnc1-c1sc2nc(C)cc(C)c2c1N	63*	109*	-152	-0.8	3.7	-2	2	4.8
CC(C(=O)Nc1ccc(C(N)=O)cc1)N1C(=O)c2ccccc2S1(=O)=O (stereo not given)	-1	-4	-0.9	-1.0	-0.2	4	.	3.9
O=C(/C=C/c1cccc(Br)c1)OCC(=O)N1CCN(c2ccccc2)CC1	.	-1	2.3	-0.8	-0.3	.	0	.
O=S(=O)(c1cccs1)N1CCN(C/C=C/c2ccccc2)CC1	9	0	-1.5	1.9	-0.4	-13	0	1.1
Cc1oc2cc(O)ccc2c(=O)c1Oc1ccc(F)cc1	1	-6	i	7.1	-1.2	7	-8	0.4
O=C(Cn1cnc2scc(-c3ccc(Br)cc3)c2c1=O)N1CCOCC1	-8	-4	3.6	-5.5	0.5	26	-3	-2.5
NS(=O)(=O)c1ccc2nc(-c3ccccc3)c(-c3ccccc3)nc2c1	15	3	-29	-1.2	0.5	1	-3	-2.5
COC(=O)CSc1nccc(C)n1	18	-1	0.5	2.4	0.2	-1	5	-2.1
CN(Cc1ccco1)C(=O)CSc1nn2c(=O)c(C(C)(C)C)nnc2s1	.	-3	6.7	-0.8	1.1	.	-3	.
COc1ccc(/C(O)=C2/C(=O)C(=O)N(CCCN3CCOCC3)C2c2ccc(C)cc2)cc1 (stereo not given)	-2	6	10	-3.3	-1.4	-2	10	4.2
CCOc1ccc(NC(=O)CN2C(=O)NC(C)(c3ccc(OC(F)F)cc3)C2=O)cc1 (stereo not given)	11	5	.	-0.6	-0.7	5	3	7.6
CCCCNC(=O)C1CCN(S(=O)(=O)c2cnc[nH]2)CC1	-11	7	2.6	-2.2	0.8	5	5	0.1
CC(=O)c1ccc(N(C)C)c2c(N(C)C)cccc12	6	4	1.4	-3.3	0.0	26	-4	13
C=CCNC(=O)/C(=C\C=C\c1ccccc1)NC(=O)c1ccccc1Cl	-3	17	4.7	-3.3	0.4	4	3	0.0
Cc1nc(SC(C(=O)c2ccccc2)c2ccccc2)n[nH]1 (stereo not given)	-4	-1	0.8	-5.7	-0.7	7	-4	1.9
Cc1ccsc1C(=O)NNC(=O)C1C2C=CC(C2)C1C(=O)O (stereo not given)	.	-3	5.4	-0.5	1.1	.	-5	.
COc1ccc(CCNC(=O)CCCN2C(=O)C(c3ccccc3)Oc3cccnc32)cc1OC (stereo not given)	-5	5	0.4	-2.9	0.4	0	-4	5.2
NC(=O)c1ccc(-c2nnc(Nc3ccc(S(N)(=O)=O)cc3)c3ccccc23)cc1	-2	-18	-5.8	3.0	-0.1	13	.	0.6
CC(=O)c1cccc(NC(=O)c2ccc(-c3ccccc3[N+](=O)[O-])o2)c1	-16	-16	1.8	-3.0	-1.4	6	-7	1.5
CCC(Oc1cccc(C)c1)C(=O)Nc1ccccc1C(=O)N1CCOCC1 (stereo not given)	2	-8	-3.1	3.1	0.4	1	-1	-0.2
CCOC(=O)c1c(NC(=O)C2CC2)sc2c1CC(C)(C)OC2	9	5	2.8	-1.6	0.3	2	2	0.6
Cc1cc(C)c(-c2c(O)c3cccnc3n(C)c2=O)c(C)c1	-13	6	1.8	-0.7	0.6	-10	-3	-0.2

The listing continues.
Molecule	T cruzi inh	Beta2AR agonist	UCH37 inh	LANA-H2A inh	Bfl-1 A1 inh	Calb FLC	Beta cell apopt	RanGTP-Imp inh
O=C(Nc1sc2c(c1C(=O)O)CCC2)c1cccc(Cl)c1	-7	5	9.4	2.9	-10	14	5	0.8
O=S(=O)(c1ccccc1)c1ncc(C(F)(F)F)cc1Cl	-3	3	3.8	.	.	-5	.	-1.7
CCN(CC)S(=O)(=O)c1cc(NC(=O)COC(=O)C2CCC2)ccc1C	.	-6	5.4	.	0.5	.	2	.
CCOC(=O)C1CCCN(C(=O)c2ccc3c(=O)n(CCOC)c(=S)[nH]c3c2)C1 (stereo not given)	1	2	2.4	1.9	-0.8	45	.	-1.8

Source: PubChem BioAssay (several laboratories)
